Vif A3G: inhibitors of Vif binding to APOBEC3G peptide, primary screen, biochemical, TR-FRET, GST-Vif 1-94, biotin-A3G peptide, dose response retest (AID 1117319); TR-FRET GST-Vif / biotin-A3G peptide binding; higher % means a stronger effect; test concentration not given here; strong numbers were not always called active; one-dose inhibition, %; IC50 in µM for titrated hits; 260,000 tested, 0.57% active;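 active = above the screen mean plus three standard deviations and confirmed in dose response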;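 also: Vif residues 1-94 fused to GST binding biotinylated APOBEC3G peptide 110-148; 0% = full assay without inhibitor and 100% = GST in place of GST-Vif; retest series ran down from 100 µM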
Ecoli growth: blocks Escherichia coli growth; OD600, 23 h; active compounds read low; OD600 absorbance (test concentration not listed); 330,000 tested, 0.21% active; AID 1053175;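 active = OD600 absorbance below the run mean of sample wells minus 3.6 SD, in any replicate, cut at about 0.56 in these data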;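 also: stock transfer was 300 nL into about 60 µL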
UCH37 inh: inhibitors of human deubiquitinating enzyme UCH37 | purified proteasome/UCH37, Ub-AMC cleavage fluorescence | inhibition, % (test concentration not listed) | AID 588478 | 330,000 tested, 0.33% active | Q9Y5K5;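 active = mean of two replicates above 20%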;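 also: 0% = compound-free wells with enzyme and 100% = wells lacking proteasome; stock transfer was 100 nL into about 20 µL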
Target sequence (Q9Y5K5 whole entry, looked up): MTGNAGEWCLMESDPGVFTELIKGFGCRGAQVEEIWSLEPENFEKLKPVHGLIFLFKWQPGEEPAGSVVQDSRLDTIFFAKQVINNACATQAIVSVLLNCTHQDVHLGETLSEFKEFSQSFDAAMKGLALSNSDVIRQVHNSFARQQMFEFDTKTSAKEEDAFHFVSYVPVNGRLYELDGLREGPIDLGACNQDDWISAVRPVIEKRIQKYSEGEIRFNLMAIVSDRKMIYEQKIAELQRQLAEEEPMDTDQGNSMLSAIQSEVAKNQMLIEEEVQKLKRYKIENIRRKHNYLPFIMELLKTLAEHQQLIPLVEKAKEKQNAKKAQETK
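System: Proteasome-associated human UCH37 deubiquitinase; Input: 0.15 nM proteasome in added enzyme buffer; Also added: Ub-AMC substrate from 1 µM stock; Incubation: 30 min compound-proteasome preincubation then 25 min substrate reaction, room temperature; Detection: fluorescence, ex 355 nm, em 460 nm; Read-out: % inhibition of Ub-AMC cleavage fluorescence; Benchmarks: no-proteasome and no-compound wells.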
B2AR ag: activates human beta-2 adrenergic receptor causing internalization. response, % (concentration not given with the values). 340,000 tested, 0.43% active. Am2.2-beta2AR cells, FAP receptor internalization, flow cytometry; reference of the scale not given here. P07550;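 active = response above a set limit, near 3 SD of response in nonfluorescent compounds, cut at about 42% in these data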;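 also: stock transfer was 100 nL into about 11 µL; a reference agonist was the positive control; negative values mostly stem from fluorescent compounds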
Bfl-1 A1 inh: inhibitors of the anti-apoptotic protein A1, read as caspase activation. MEF A1-2A-BIM cells, Caspase-Glo 3/7 luminescence, 3 h; percent of clofoctol response, vehicle zero. caspase activation, % (test concentration not listed). 330,000 tested, 0.066% active. AID 2462;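 active = over half of replicate activation scores above 10%, or exactly half above 10 with the replicate mean above 10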;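 also: wells of about 30 µL received 50 nL stock; many hits fall short of the cut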
HNF4A DNA FP: change in binding of human HNF4 alpha to DNA | 360,000 tested, 0.3% active | P41235 | HNF4a-FITC DNA binding, fluorescence polarization, 1 h | AID 1224865 | activity change, % at 10 µM; in the data active = activity change above about 30%, passing the limit was not always enough;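 also: controls were the assay level and a saturating level of protein; the project sought stronger binding though the title names inhibitors; some compounds called inactive have numbers as strong as hits; positive values seem to mean higher polarization but the record does not say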
Target sequence (P41235 whole entry, looked up): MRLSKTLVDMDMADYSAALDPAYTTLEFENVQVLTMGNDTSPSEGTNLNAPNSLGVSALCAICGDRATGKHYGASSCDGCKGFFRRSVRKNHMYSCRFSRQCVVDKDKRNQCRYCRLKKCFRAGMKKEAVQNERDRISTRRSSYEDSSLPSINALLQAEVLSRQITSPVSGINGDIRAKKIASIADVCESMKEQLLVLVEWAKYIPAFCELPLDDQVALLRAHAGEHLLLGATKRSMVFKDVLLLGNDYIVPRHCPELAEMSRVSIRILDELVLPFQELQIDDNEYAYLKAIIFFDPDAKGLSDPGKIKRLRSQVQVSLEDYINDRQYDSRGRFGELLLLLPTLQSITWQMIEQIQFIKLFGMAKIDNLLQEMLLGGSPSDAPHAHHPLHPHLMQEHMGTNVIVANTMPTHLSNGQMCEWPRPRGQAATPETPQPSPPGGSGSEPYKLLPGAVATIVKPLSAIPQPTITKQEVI
LANA-H2B inh: blocks KSHV LANA binding to histone H2A/H2B; inhibition, % (concentration not given with the values); cell-free LANA-H2A/H2B peptide, fluorescence polarization; 320,000 tested, 0.6% active; Q9QR71; in the data active = inhibition mostly above about 10%, no sharp cut-off; inactive = mostly below about 6.7%;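 also: stock transfer was 7.5 nL into about 10 µL; 0% = median of vehicle wells and 100% = median of positive control wells; one replicate is shown; the record names a cut of 25% in any replicate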
The depositor's hits bear a star; · = no result given; & = joins results of further samples.

Value order – Vif A3G	Ecoli growth	UCH37 inh	B2AR ag	Bfl-1 A1 inh	HNF4A DNA FP	LANA-H2B inh
COc1ccc(N2CCCn3c2nc2c3c(=O)n(CCc3ccccc3)c(=O)n2C)cc1
    ·	0.65	1.0	11	0.2	-2.9	0.5
COc1ccc(C2CC(c3ccccc3)=NN2C(=O)CSc2ncn[nH]2)cc1 (stereo not drawn)
    ·	0.71	-1.8	-5	0.4	-0.2	2.3
COc1ccc(OC)c(-c2cc(C(=O)N/N=C/c3ccc(F)cc3)c3ccccc3n2)c1
    ·	·	·	4	0.0	4.3	-1.6
COc1ccc(NC(=O)CSc2nc(O)cc(=O)n2C)cc1
    1%	0.74	4.2	4	-0.3	-4.4	-1.8
Cc1ccsc1C(=O)OCC(=O)c1cc(C)n(C)c1C
    ·	0.66	1.4	3	-13	-2.9	-0.1
Cc1noc(C)c1CSc1cc(C)c2ccccc2n1
    -2%	0.71	1.0	-20	0.2	3.5	-1.6
COc1ccc(CNC(C)CCc2ccccc2)cc1 (stereo not drawn)
    2%	0.69	5.3	-2	-1.2	1.1	3.2
O=C(CN1C(=O)NC2(CCCCC2)C1=O)NCc1ccc2c(c1)OCO2
    -9%	0.71	-0.4	-13	-0.1	5.1	7.6
COc1ccccc1-c1cc(SC)c(C#N)c(=O)o1
    -35%	·	·	-2	0.3	-0.4	0.6
Cc1nc2ccc(S(=O)(=O)NCC(=O)Nc3ccc(F)cc3)cc2s1
    4%	0.6	0.7	-5	0.5	-0.9	-2.1
Nc1ncnc2c1ncn2[C@@H]1O[C@H](CNCc2cccn2-c2nccs2)[C@@H](O)[C@H]1O
    -4%	0.72	1.5	3	0.5	3.9	2.5
O=C(Nc1cccc(-c2csc(-c3ccccc3)n2)c1)c1cccs1
    -3%	0.7	1.4	-14	0.1	1.4	-1.7
COC1=C(Nc2ccc(OC)cc2)C(=O)C(OC)=C(Nc2ccc(OC)cc2)C1=O
    -6%	0.66	6.4	-5	·	1.3	·
CN1C(=O)c2ccc(NC(=O)c3cccc4ccccc34)cc2C1=O
    -2%	0.68	-94	3	1.2	2.1	-0.1
CCn1nc(NS(=O)(=O)c2ccc(NC(C)=O)cc2)c2cc3cccc(C)c3nc21
    3%	0.74	-0.6	3	-0.3	-0.5	-1.8
COCCCN1CN(Cc2ccco2)CNC1=S
    1%	0.68	2.0	9	-0.2	4.2	3.8
CCCOc1ccc(N2C(=O)C3C4C=CC(CC4)C3C2=O)cc1 (stereo not drawn)
    0%	0.62	0.1	5	0.3	4.8	-2.1
Cc1nc(C)c(-c2ccc(SCc3cccc(F)c3)nn2)s1
    ·	0.68	3.1	-1	-0.3	5.2	-1.4
COc1ccc(S(=O)(=O)Oc2ccccc2C(=S)N2CCOCC2)cc1
    0%	·	·	-3	-0.2	0.8	-3.1
CCC(=O)Nc1ccc(C(=O)CSc2nc3ccccc3cc2CC)cc1
    -13%	0.74	4.7	-8	0.1	0.2	-0.3
COc1ccccc1/C=C/C(=O)OCC(=O)Nc1ccc(Cl)cn1
    -7%	0.69	-10	1	1.5	4.0	-6.3
Cc1ccc(NC(=O)C(=O)NCCN2CCN(Cc3ccc([N+](=O)[O-])cc3)CC2)cc1
    2%	0.7	6.4	17	0.5	-2.6	2.7
O=C(Nc1ccccc1)c1ccc(F)cc1F
    ·	0.67	4.5	-4	-6.6	-0.1	-0.8
O=C(CCl)N1c2ccccc2SCC1c1ccccc1 (stereo not drawn)
    ·	·	·	18	1.1	0.0	-0.3
COc1ccc(N(C(=O)c2ccco2)S(=O)(=O)c2cc(Cl)c(Cl)cc2Cl)cc1
    -3%&64%	0.75	3.0	3	0.1	-0.9	-1.4
C#CC(=O)CCC1CCCN1C(=O)OC(C)(C)C (stereo not drawn)
    ·	0.65	2.6	5	0.7	-0.3	0.7
O=C(Nc1ccc(NC(=O)c2ccccn2)cc1)C(=O)Nc1ccc2c(c1)OCCO2
    5%	0.69	-4.7	6	-0.1	2.6	1.5
CCOC(=O)C1CCN(C(=O)c2cccs2)CC1
    ·	0.7	1.6	-12	-0.2	2.0	0.6
CNc1oc(-c2cccs2)nc1S(=O)(=O)c1ccccc1
    -4%	0.68	4.0	2	0.9	-0.8	1.8
Cc1ccc(CN2CCSc3ccc(C(=O)NCc4ccccn4)cc32)cc1
    5%	0.69	-366	-4	0.4	0.9	7.4

By substructure, the compounds so far containing a halogen.
Value order – Vif A3G	Ecoli growth	UCH37 inh	B2AR ag	Bfl-1 A1 inh	HNF4A DNA FP	LANA-H2B inh
COc1ccc(OC)c(-c2cc(C(=O)N/N=C/c3ccc(F)cc3)c3ccccc3n2)c1
    ·	·	·	4	0.0	4.3	-1.6
Cc1nc2ccc(S(=O)(=O)NCC(=O)Nc3ccc(F)cc3)cc2s1
    4%	0.6	0.7	-5	0.5	-0.9	-2.1
Cc1nc(C)c(-c2ccc(SCc3cccc(F)c3)nn2)s1
    ·	0.68	3.1	-1	-0.3	5.2	-1.4
COc1ccccc1/C=C/C(=O)OCC(=O)Nc1ccc(Cl)cn1
    -7%	0.69	-10	1	1.5	4.0	-6.3
O=C(Nc1ccccc1)c1ccc(F)cc1F
    ·	0.67	4.5	-4	-6.6	-0.1	-0.8
O=C(CCl)N1c2ccccc2SCC1c1ccccc1 (stereo not drawn)
    ·	·	·	18	1.1	0.0	-0.3
COc1ccc(N(C(=O)c2ccco2)S(=O)(=O)c2cc(Cl)c(Cl)cc2Cl)cc1
    -3%&64%	0.75	3.0	3	0.1	-0.9	-1.4

By substructure, the compounds so far containing a thiophene ring, fused or not
Value order – Vif A3G	Ecoli growth	UCH37 inh	B2AR ag	Bfl-1 A1 inh	HNF4A DNA FP	LANA-H2B inh
Cc1ccsc1C(=O)OCC(=O)c1cc(C)n(C)c1C
    ·	0.66	1.4	3	-13	-2.9	-0.1
O=C(Nc1cccc(-c2csc(-c3ccccc3)n2)c1)c1cccs1
    -3%	0.7	1.4	-14	0.1	1.4	-1.7
CCOC(=O)C1CCN(C(=O)c2cccs2)CC1
    ·	0.7	1.6	-12	-0.2	2.0	0.6
CNc1oc(-c2cccs2)nc1S(=O)(=O)c1ccccc1
    -4%	0.68	4.0	2	0.9	-0.8	1.8

(continued)
Value order – Vif A3G	Ecoli growth	UCH37 inh	B2AR ag	Bfl-1 A1 inh	HNF4A DNA FP	LANA-H2B inh
COc1ccc(-n2cnc3cc(NCc4cccs4)ccc32)cc1
    8%	0.66	-1.7	7	-0.9	-0.8	-1.9
CC(CCc1ccco1)NC(=O)Nc1cccc(F)c1 (stereo not drawn)
    5%	0.63	1.7	3	0.7	3.4	-0.7
NC1=NC(c2ccc(Br)cc2)n2c(nc3ccccc32)N1 (stereo not drawn)
    -6%&-2%	0.65&0.67	6.8&5.3	-5&0	0.3	-1.3&-0.3	7.9
c1ccc(-c2nn3c(Cn4cnc5ccccc54)nnc3s2)cc1
    1%	0.69	5.8	0	0.1	0.4	1.5
CCOc1ccc(NC2=CC(=O)CC(c3ccco3)C2)cc1 (stereo not drawn)
    9%	0.68	3.3	5	-0.5	-3.0	-0.5
O=C(NCCN1CCOCC1)c1cc(-c2ccc(Cl)cc2Cl)on1
    ·	0.66	2.2	-6	-0.3	1.8	3.4
Nc1nc(SCC(=O)c2cc(F)ccc2F)n[nH]1
    -1%	0.73	-0.7	4	0.5	-0.4	-3.5
CCC(CC)NC(=O)c1ccccc1Oc1ccccc1
    2%	0.8	2.1	0	0.4	-1.2	-0.9
CCn1c(CNC(=O)c2ccccc2)nc2ccccc21
    ·	0.62	0.1	0	-0.6	-3.4	0.1
CCC(C)NC(=O)NC(=O)N(C1CCCCC1)S(C)(=O)=O (stereo not drawn)
    22%	0.71	4.1	11	-0.3	-1.6	3.8
Cc1cc(NC(=O)CSc2nc3ccccc3n2CC(=O)N2CCCCC2)no1
    0%&-5%	0.66	1.6	-6	·	2.0	·
Cc1ccc(S(=O)(=O)N(CC(=O)N=Nc2c(O)[nH]c3ccccc23)c2ccc(C)c(C)c2)cc1
    ·	0.7	4.7	-6	0.0	-3.5	0.9
CC(c1ccco1)N(C(=O)c1ccccc1NS(=O)(=O)c1ccc(Cl)cc1)c1ccccn1 (stereo not drawn)
    13%	0.72	0.5	7	0.0	4.6	1.9
Cc1cc(C(=O)N2CCCC(N3CCN(c4cccc(C(F)(F)F)c4)CC3)C2)nn1C (stereo not drawn)
    0%	0.7	-2.1	-2	0.4	-0.9	-5.6
CCN(CC(=O)Nc1ccc(NC(C)=O)cc1)C(=O)Cc1ccc(S(=O)(=O)N2CCOCC2)s1
    1%	0.67	3.6	-8	0.6	3.8	-3.7
COc1ccc(-c2noc(CSc3nnc(Cc4ccccc4)n3-c3cccc(C)c3)n2)cc1OC
    32%&-1%	0.72	4.8	3	0.8	1.3	4.2
CCOC(=O)c1c(C)n(C)c2ccc(OC)c(NC(=O)CN3CCC(C(=O)OCC)CC3)c12
    ·	0.67	4.3	6	-1.0	19	0.4
Cc1cccc(-c2nc3ccccc3c(=O)n2N)c1
    -4%	0.62	2.5	-2	-0.1	1.4	-2.5
CCn1nc(C(=O)NNC(=O)C2CSC3(C)CCC(=O)N23)c2ccccc2c1=O (stereo not drawn)
    -4%	0.68	2.2	-9	0.3	2.4	·
CCC(=O)NCCc1nc2cc(NC(=O)COc3ccccc3)ccc2n1C
    ·	0.68	1.1	1	0.1	-1.7	-7.0
Cc1cccc(NC(=O)NC2CC3CCC(C2)N3Cc2ccco2)c1 (stereo not drawn)
    5%	0.65	2.9	-2	-0.6	-1.4	1.6
Cc1cccc(NS(=O)(=O)c2cc3c4c(c2)CCN4C(=O)CC3)c1C
    4%	0.65	2.4	-6	0.0	2.8	0.8
COc1ccc2c(-c3ccccc3)cc(SCC(=O)N(C)C3CCS(=O)(=O)C3)nc2c1 (stereo not drawn)
    8%	0.71	-1.3	-2	0.2	-0.3	3.1
COc1cccc(C(=O)Nc2cc(C(F)(F)F)ccc2Cl)c1
    -2%	0.65	1.6	2	-0.7	0.1	1.1
Cc1ccc(N2CCN(C(=S)Nc3ccc(Cl)cc3)CC2)cc1
    ·	0.72	1.2	-4	0.6	-2.2	0.9
Cn1c(N)c(C(=O)COC(=O)c2cc(-c3ccccc3)nc3ccccc23)c(=O)n(Cc2ccccc2)c1=O
    10%	0.72	3.4	-3	-0.1	20	1.0
O=C1Nc2ccccc2/C1=C\c1cccn1-c1ccc(OC(F)(F)F)cc1
    5%	0.69	7.2	2	-0.4	4.2	-3.9
